Measles inh: inhibitors of measles virus growth in infected cells | infected Vero cells, GFP fluorescence, 64 h; active compounds read low | z-score (concentration not given with the values) | 33,000 compounds, 0.1% hits;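 active means z-score under -3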;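 further: score is relative to mean and SD of the compound wells of a plate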
* = called active by the depositor. Not all compounds are listed; rates above refer to the full screens.

SMILES	Measles inh
O=C(Nc1ncc(S(=O)(=O)c2ccc([N+](=O)[O-])cc2)s1)c1ccc(S(=O)(=O)N2CCCCC2)cc1	-1.6
NC(N)=Nc1nc(-c2ccccc2)c2ccccc2n1	0.37
O=[N+]([O-])c1cc(N=Cc2c[nH]c3ccccc23)ccc1N=Cc1c[nH]c2ccccc12	-0.47
CSc1ccccc1NC(=O)c1noc2c1CC(C(C)(C)C)CC2 (stereo unspecified)	1.1
CCN(CC)C(=O)C1C(=O)NC2(C)CC1c1ccccc1O2 (stereo unspecified)	-0.57
O=C(NC1CCCCC1)N1c2ccccc2CCc2ccccc21	-2
O=S(=O)(c1ccc2nc(-c3ccccc3)[nH]c2c1)N1CCC(Cc2ccccc2)CC1	-0.1
COC(=O)C1=CN(C)C=C(C(=O)OC)C1c1cc2c(cc1Cl)OCO2	0.47
O=c1[nH]c2ccc(NCc3ccccc3OCc3ccccc3F)cc2[nH]1	-0.42
Cc1c(OC(=O)c2cccs2)ccc2c3c(c(=O)oc12)CCC3	1.3
O=C(c1cccn2c(=O)c3sccc3nc12)N1CC=C(c2ccccc2)CC1	-2.1
C=CCNC(=O)c1ccc2c(=O)n(Cc3ccco3)c(=S)[nH]c2c1	-0.25
CC1CCN(c2nc3c(c(=O)n(C)c(=O)n3C)n2Cc2cccc(Cl)c2)CC1	-0.73
CCc1ccc(NC(=O)CSc2nc3c(c(=O)n2-c2ccccc2OC)SCC3)cc1	-1.1
COC(=O)c1c(NC(=O)COc2cccc(Br)c2)sc2c1CCC(C)C2 (stereo unspecified)	-0.51
Cc1cccc(C)c1NC(=O)c1c(-c2ccccc2Cl)noc1C	-0.07
Cc1ccc(NC(=O)c2ccc3c(=O)n(Cc4ccco4)c(=S)[nH]c3c2)cc1F	-0.05
O=C(NCC1CCCO1)Nc1ccccc1 (stereo unspecified)	-0.13
CC(C)OCCCNC(=O)C1CCN(S(=O)(=O)N2CCCC2)CC1	0.53
Cn1cc(C(=O)NC2CCCCC2)c(=O)c2cc(S(=O)(=O)N3CCCCCC3)ccc21	-0.26
CNC(=O)C1=C(C)NC(=S)NC1c1ccc(OC)c(Br)c1 (stereo unspecified)	0.41
O=C(c1cc2c(=O)oc3ccccc3c2s1)N(Cc1cccs1)C1CCCC1	0.58
CC(=O)N1c2ccccc2N=C(c2ccc(I)cc2)CC1c1ccc(F)cc1 (stereo unspecified)	-0.16
CC1CCN(C(=O)c2cc3c(=O)n4ccccc4nc3s2)CC1	1.4
CC(O)c1cccc(NC(=O)c2cc3n(n2)C(C(F)(F)F)CC(c2ccc(F)cc2)N3)c1 (stereo unspecified)	-1.4

Next section (4 carried over from the part before).
SMILES	Measles inh
O=C(c1cc2c(=O)oc3ccccc3c2s1)N(Cc1cccs1)C1CCCC1	0.58
CC(=O)N1c2ccccc2N=C(c2ccc(I)cc2)CC1c1ccc(F)cc1 (stereo unspecified)	-0.16
CC1CCN(C(=O)c2cc3c(=O)n4ccccc4nc3s2)CC1	1.4
CC(O)c1cccc(NC(=O)c2cc3n(n2)C(C(F)(F)F)CC(c2ccc(F)cc2)N3)c1 (stereo unspecified)	-1.4
COc1cc(NC(=O)c2cc(-c3ccco3)on2)c(OC)cc1Cl	0.34
CC(=O)Nc1ccc(Nc2c3c(c(C#N)c4nc5ccccc5n24)CCCC3)cc1	1.2
CC(C)C(C(=O)O)N1C(=O)NC2NC(=O)NC21 (stereo unspecified)	-0.67
Cc1c(C(=O)N(C)C)sc2c1c(=O)n(-c1ccc(Cl)cc1)c(=O)n2Cc1ccccc1F	-0.06
O=C(c1ccc([N+](=O)[O-])cc1)N1CCc2ccccc2C1	-0.16
CSCCC(NS(=O)(=O)c1ccc2c(c1)c(=O)n(C)c(=O)n2C)C(=O)Nc1nccs1 (stereo unspecified)	-0.37
Cc1ccnc(N2C(=O)C3C4c5ccccc5C(c5ccccc54)C3C2=O)c1 (stereo unspecified)	-0.91
COc1ccc(N(C)S(=O)(=O)c2ccc3c(c2)CCN3C(C)=O)cc1	-0.98
CCCSc1nc2c(c(=O)n(C)c(=O)n2C)n1Cc1ccc(F)cc1	-2.1
Cc1nc(SCC(=O)Nc2cccc3ccccc23)c(C#N)c(C)c1Cl	-0.27
Cc1cc(-n2c(C)ccc2-c2ccccc2)ccc1F	1.2
COc1cccc(N2CCN(C(=O)c3ccc4nc5ccccc5c(=O)n4c3)CC2)c1	-0.44
CCOC(=O)c1c(C)oc2ccc(OCc3ccc(F)cc3)cc12	-0.8
OCCCNc1ncnc2c1c(-c1ccccc1)cn2-c1ccc(F)cc1	-0.91
O=C(c1ccco1)N1CCN(S(=O)(=O)c2ccc3nc(-c4ccccc4)[nH]c3c2)CC1	-0.21
CCN(CC)C(=O)C1CCCN(c2cc3c(cc2[N+](=O)[O-])C(=O)N(c2ccc(C)cc2)C3=O)C1 (stereo unspecified)	0.85
COc1cc(C(=O)Nc2ccc(C(C)=O)cc2)cc(OC)c1OC	0.14
CCOc1ccccc1C(=O)Nc1c2c(nn1-c1cccc(Cl)c1)CSC2	-0.87
COc1ccc(Cl)cc1NC(=O)Cn1cnc2ccccc2c1=O	0.35
CC1CC(C)CN(S(=O)(=O)c2ccc(C(=O)N=c3sc4cc(Br)ccc4n3C)cc2)C1 (stereo unspecified)	0.44
N#CC1C(c2ccc3ccccc3n2)=CN(CC(=O)c2ccc([N+](=O)[O-])cc2)c2ccccc21 (stereo unspecified)	-0.31
CC1CCCCN1C(=O)c1cc2nc(-c3ccc(Br)cc3)cc(C(F)(F)F)n2n1 (stereo unspecified)	1.1
COC(=O)C1=C(C(=O)OC)SC(=C2C(=S)C(C)(C)N(C(=O)C(C)C)c3ccccc32)S1	0.51
Cc1ccccc1NS(=O)(=O)c1ccc2oc3ccc(S(=O)(=O)Nc4ccccc4C)cc3c2c1	0.41
Cc1ccc2c(c1)c(=O)c1ccccc1n2CC(=O)Nc1ccc(OCc2ccccc2)cc1	0.04
Following part:
SMILES	Measles inh
NC(=O)Cn1c(=O)n(-c2ccc(Cl)cc2)c(=O)c2c3c(sc21)CCC3	-0.48
Cc1ccc(NC(=O)c2ccc(N3CCN(c4ccccc4Cl)CC3)c([N+](=O)[O-])c2)c(C)c1	-0.52
CC1(C)CC(=O)C2=C(C1)c1c(ccc3ncccc13)NC2c1ccc(O)c(O)c1 (stereo unspecified)	-0.15
Cc1nc(-c2c[nH]c3ccccc23)c(C)s1	-0.27
CCC(=O)N1CCc2cc(S(=O)(=O)CCC(=O)Nc3cc(Cl)ccc3C)ccc21	0.43
O=C(CSc1ncc(-c2ccc(Br)cc2)[nH]1)c1ccc([N+](=O)[O-])cc1	0.2
O=C(CSc1nnc2ccccn12)Nc1cccc(-c2nc3ccccc3s2)c1	-1.2
O=C1NCCCC1C(=O)NCC(O)CO (stereo unspecified)	-0.28
COc1cccc(-c2coc3c(C)c4oc(=O)c5c(c4cc23)CCCCC5)c1	-0.28
Cc1cc(N2CCCCC2)nc2ccc(NC(=O)CCC(=O)NC3CCCCCC3)cc12	1.3
CC(C)NC(=O)c1cc(-c2ccco2)on1	1.4
CCOC(=O)C(CC)Sc1nc2c(c(=O)n1-c1ccccc1)SCC2 (stereo unspecified)	1
C=CCNc1ncnc2sc(C)c(C)c12	0.34
C=CCn1c(SCC(=O)Nc2ccc(OC)cc2)nnc1-c1ccc2[nH]c(C)c(C)c2c1	-0.92
O=C1c2ccccc2NC(c2ccc(O)cc2)N1Cc1ccco1 (stereo unspecified)	-0.32
Cc1cc(C)c(S(=O)(=O)Nc2ccc(O)c(C(=O)O)c2)cc1C	0.71
O=C(CSc1nnc2scc(-c3ccc(Cl)cc3)n12)NCc1ccco1	0.3
COc1cccc(CNC(=O)C2(S(=O)(=O)c3ccc(C)cc3)CC2)c1	0.88
COc1ccc(C(=O)Nc2ccc(NC(=O)c3ccccc3)cc2)cc1S(=O)(=O)N1CCOCC1	-0.67
Cc1ccccc1-n1nc2c(c1NC(=O)c1ccc(C(C)(C)C)cc1)CS(=O)(=O)C2	0.29
CCC(C)NC(=O)CSc1nc2ccc(N3CCOCC3)cc2c(=O)n1Cc1ccc2c(c1)OCO2 (stereo unspecified)	1.2
C=CCNC(=O)c1cc2c(=O)n3cccc(C)c3nc2s1	1.3
CC1=CC(C)(C)Nc2ccc(OC(=O)C(Cc3ccccc3)N3C(=O)C4CCCCC4C3=O)cc21 (stereo unspecified)	4.3
CCc1ccccc1N(C)C(=O)Cn1cnc2sc(C)c(S(=O)(=O)N3CCC(C)CC3)c2c1=O	-0.41
O=C(CCn1c(=O)[nH]c2ccccc2c1=O)Nc1ccccc1	-1.3

An excerpt from above in order of their number in Measles inh, ascending:
SMILES	Measles inh
O=C(CCn1c(=O)[nH]c2ccccc2c1=O)Nc1ccccc1	-1.3
O=C1c2ccccc2NC(c2ccc(O)cc2)N1Cc1ccco1 (stereo unspecified)	-0.32
Cc1nc(-c2c[nH]c3ccccc23)c(C)s1	-0.27
CC1(C)CC(=O)C2=C(C1)c1c(ccc3ncccc13)NC2c1ccc(O)c(O)c1 (stereo unspecified)	-0.15
COc1cccc(CNC(=O)C2(S(=O)(=O)c3ccc(C)cc3)CC2)c1	0.88
Cc1cc(N2CCCCC2)nc2ccc(NC(=O)CCC(=O)NC3CCCCCC3)cc12	1.3
CC1=CC(C)(C)Nc2ccc(OC(=O)C(Cc3ccccc3)N3C(=O)C4CCCCC4C3=O)cc21 (stereo unspecified)	4.3

(listing goes on)
SMILES	Measles inh
O=C(c1cnn2c1NC(c1ccc3c(c1)OCO3)CC2C(F)(F)F)N1CCN(Cc2ccccc2)CC1 (stereo unspecified)	-0.04
COc1ccc(N2CCN(C3OC(=O)c4ccccc43)CC2)cc1 (stereo unspecified)	-0.37
COc1ccc2c(C)nc(Nc3nc(C)cc(=O)[nH]3)nc2c1	-1.6
Cc1noc(C)c1S(=O)(=O)N1CCC(C(=O)N2CC(=O)N(CCc3ccccc3)C(=O)C2)CC1	-1.1
COc1cc2c(cc1NC(=O)c1cccc(Br)c1)oc1ccccc12	-1
COC(=O)C(C)C1Sc2ccccc2NC1=O (stereo unspecified)	0.84
CCC(=O)N(CCC1(c2ccc(OC)cc2)CCOC(C)(C)C1)Cc1ccc(Cl)cc1 (stereo unspecified)	0.44
CCCOC(=O)C1=C(C)NC2=C(C(=O)CCC2)C1c1cccc(Oc2ccccc2)c1 (stereo unspecified)	-0.97
COc1ccc(N=Cc2cccc([N+](=O)[O-])c2O)cc1Cl	-0.55
COc1ccc(-n2nc3c(c2NC(=O)c2ccc(S(=O)(=O)N(C)C)cc2)CS(=O)C3)cc1 (stereo unspecified)	1.3
Cc1cc(N2CCN(C3CCCC3)CC2)n2c(nc3ccccc32)c1C#N	0.49
CCN1C(=O)N(CC)C2C1N(CC)C(=O)N2CC (stereo unspecified)	-0.75
COc1ccc(-c2cc(C(F)(F)F)nc(-n3nccc3C)n2)cc1	-0.67
COc1ccc(C2/C(=C(\O)c3ccc(Cl)cc3)C(=O)C(=O)N2CCN2CCOCC2)cc1OC (stereo unspecified)	-0.07
CSc1nc(N)nc(SCC(=O)Nc2ccc(C)cc2)c1C#N	-0.17
NC(=O)c1ccc(NC(=O)CN2CCN(c3ccccn3)CC2)cc1	-1.5
COc1ccc(C)cc1NC(=O)CN(c1cccc(C)c1C)S(C)(=O)=O	0.43
O=C(Cc1c(C(=O)O)[nH]c2ccccc12)Nc1ccc(C(F)(F)F)cc1	0.24
CC(=O)c1ccc(NC(=O)c2ccc(C)c(S(=O)(=O)N3CCOCC3)c2)cc1	0.4
CC1Cc2nc(SCC(=O)Nc3nccs3)n(Cc3ccccc3)c(=O)c2S1 (stereo unspecified)	-0.66
CCc1ccccc1-n1c(N)c(C(=O)OC)c2nc3ccccc3nc21	0.12
Cc1c(N=Cc2ccccc2F)c(=O)n(-c2ccccc2)n1C	-0.33
O=C1CSC(=Nc2cccc(Br)c2)N1	0.38
O=C(NCCCN1CCCC1=O)c1ccc2nc3ccccc3c(=O)n2c1	0.17
Cc1c(C(=O)NCCCN2CCC(C)CC2)sc2ncn(CC(=O)N3CCCCC3C)c(=O)c12 (stereo unspecified)	-1.3
(cont.)
SMILES	Measles inh
CN1CCN(CC(=O)Nc2c(C(=O)c3ccccc3)oc3ccccc23)CC1	-0.02
O=C(c1cccc(C(F)(F)F)c1)N1CCn2c1nc1ccccc12	0.14
O=C(Nc1c[nH]c(=O)[nH]c1=O)c1ccc(N2C(=O)C3C4C=CC(C4)C3C2=O)cc1 (stereo unspecified)	-0.81
CC(O)C(=O)NS(=O)(=O)c1ccccc1 (stereo unspecified)	-0.05
Cc1cc(C)n2nc(SCC(=O)NCc3ccco3)nc2n1	-1.3
CC(=O)N1CCc2cc(Br)cc(S(=O)(=O)N3CCN(C)CC3)c21	0.38
Cc1cc2cc(CCNC(=O)c3ccc(S(=O)(=O)N(C)C)cc3)c(=O)[nH]c2cc1C	0.32
CN(C)c1ccc(C2C(=O)N(C3CCCCC3)CC(=O)N2CCC2=CCCCC2)cc1 (stereo unspecified)	0.12
NC(=O)CSc1nc2ccccc2[nH]1	0.07
COc1ccc(CNCc2cc(C)c(OC)cc2C)cc1	0.42
NC1=NC(=O)CC(C(=O)Nc2ccc(Cl)cc2)S1 (stereo unspecified)	0.37
CCOc1ccc(C(=O)NCCc2cc3c(OC)ccc(OC)c3[nH]c2=O)cc1	-0.17
O=C(O)c1[nH]c2ccccc2c1CC(=O)N1CCN(c2ccccn2)CC1	-0.65
O=C(Nc1ccc2nn(-c3cccc4ccccc34)nc2c1)c1ccc(Cl)c([N+](=O)[O-])c1	-0.72
CN1CCN(C(=O)c2nn3c(C(F)(F)F)cc(-c4ccc(Br)cc4)nc3c2Br)CC1	-0.62
Cc1cc(C)nc(SCC(=O)c2ccc(C(C)C)cc2)n1	0.69
CC1=C(C(=O)OC(C)C)C(c2ccc(F)cc2)NC(=O)N1 (stereo unspecified)	-0.21
Cc1ccc(CCNC(=O)C2CCN(C(=O)N(C)C)CC2)cc1	-0.59
COc1ccc(C2C(C(=O)OCC3CCCO3)=C(C)NC3=C2C(=O)CC(C)(C)C3)cc1O (stereo unspecified)	1.1
Cc1cccc(N(CC(=O)NCCSc2ccc(Cl)cc2)S(C)(=O)=O)c1C	1.3

Part of the list above, in CSV form.
mol,Measles inh
Cc1cc2cc(CCNC(=O)c3ccc(S(=O)(=O)N(C)C)cc3)c(=O)[nH]c2cc1C,0.32
O=C(O)c1[nH]c2ccccc2c1CC(=O)N1CCN(c2ccccn2)CC1,-0.65
CC1=C(C(=O)OC(C)C)C(c2ccc(F)cc2)NC(=O)N1 (stereo unspecified),-0.21
CC(O)C(=O)NS(=O)(=O)c1ccccc1 (stereo unspecified),-0.05
